# Screening results: PubChem BioAssay, ICCB-Longwood Screening Facility, Harvard Medical School
# Bm FixLJ act = activators of Burkholderia fixLJ two-component system. B. multivorans fixK-promoter GFP reporter, 18 h; stronger effect = higher value. z-score (no concentration beside the values). 29,000 compounds, 0.3% hits;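 active means replicate mean overnight rise in green fluorescent reporter signal, 3 or more SD over negative controls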;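 further: score is relative to vehicle wells of the plate; 300 nL library stock went into each well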
# Numbers without * were called inactive; & = joins results of further samples. These rows are one share of the data. The share of hits here may be higher or lower than overall.
SMILES,Bm FixLJ act
NC(=O)c1ccc(OC2COCCC2NC(=O)c2n[nH]c3c2CCC3)cc1 (configuration not stated),-1.2
CCc1ccc(-n2c(Cc3ccccc3)nnc2SCc2nc(-c3cccs3)no2)cc1,-1.3
CC1(C)O[C@H]2[C@@H](O1)[C@@H](C(=O)Nc1ccccc1O)O[C@@H]1OC(C)(C)O[C@@H]12,-0.56
O=C(c1ccccc1O)N1CCc2[nH]nc(-c3ccccc3F)c2C1,0.2
O=C(NCCc1ccccc1Cl)c1ccc2c(=O)n(-c3ccccc3)c(=O)[nH]c2c1,-1.1
CCC(=O)N1CCc2cc(S(=O)(=O)CCC(=O)Nc3ccc(Cl)c(C(F)(F)F)c3)ccc21,-2.6
CSc1ncc(Cl)c(C(=O)Nc2c(C(=O)Nc3cccc(Cl)c3)oc3ccccc23)n1,-1.9
CCc1ccc(NC(=O)CCS(=O)(=O)c2ccc3c(c2)n(C)c(=O)c(=O)n3C)cc1,-1.8
CCC[C@]1(C(=O)O)CN(C(=O)COc2cccc(C)c2C)CCC1O (some centres not stated),-1.9
Cc1cc(C)c(S(=O)(=O)NCc2csc(-c3ccccc3)n2)c(C)c1,-2.9
CCCSc1nnc2c(n1)OC(c1sccc1C)Nc1ccccc1-2 (configuration not stated),-0.91
COc1ccc(S(=O)(=O)N2CC[C@@]3(C(=O)O)CCCN(C)[C@@H]3C2)cc1C,0.54
CC1=C(C(=O)OCC(C)C)C(c2ccc(OCc3ccccc3)cc2)N2C(=O)CCSC2=N1 (configuration not stated),-0.97
CCc1ccccc1C(=O)NC1CCN(C(=O)N2CCOCC2)CC1,-2.4
COc1ccnc(CN(Cc2cocn2)Cc2cocn2)c1,-1.4

# 15 successive records already listed:
SMILES,Bm FixLJ act
NC(=O)c1ccc(OC2COCCC2NC(=O)c2n[nH]c3c2CCC3)cc1 (configuration not stated),-1.2
CCc1ccc(-n2c(Cc3ccccc3)nnc2SCc2nc(-c3cccs3)no2)cc1,-1.3
CC1(C)O[C@H]2[C@@H](O1)[C@@H](C(=O)Nc1ccccc1O)O[C@@H]1OC(C)(C)O[C@@H]12,-0.56
O=C(c1ccccc1O)N1CCc2[nH]nc(-c3ccccc3F)c2C1,0.2
O=C(NCCc1ccccc1Cl)c1ccc2c(=O)n(-c3ccccc3)c(=O)[nH]c2c1,-1.1
CCC(=O)N1CCc2cc(S(=O)(=O)CCC(=O)Nc3ccc(Cl)c(C(F)(F)F)c3)ccc21,-2.6
CSc1ncc(Cl)c(C(=O)Nc2c(C(=O)Nc3cccc(Cl)c3)oc3ccccc23)n1,-1.9
CCc1ccc(NC(=O)CCS(=O)(=O)c2ccc3c(c2)n(C)c(=O)c(=O)n3C)cc1,-1.8
CCC[C@]1(C(=O)O)CN(C(=O)COc2cccc(C)c2C)CCC1O (some centres not stated),-1.9
Cc1cc(C)c(S(=O)(=O)NCc2csc(-c3ccccc3)n2)c(C)c1,-2.9
CCCSc1nnc2c(n1)OC(c1sccc1C)Nc1ccccc1-2 (configuration not stated),-0.91
COc1ccc(S(=O)(=O)N2CC[C@@]3(C(=O)O)CCCN(C)[C@@H]3C2)cc1C,0.54
CC1=C(C(=O)OCC(C)C)C(c2ccc(OCc3ccccc3)cc2)N2C(=O)CCSC2=N1 (configuration not stated),-0.97
CCc1ccccc1C(=O)NC1CCN(C(=O)N2CCOCC2)CC1,-2.4
COc1ccnc(CN(Cc2cocn2)Cc2cocn2)c1,-1.4

# Other records follow:
SMILES,Bm FixLJ act
CCOC(=O)c1cccc(NC(=O)CCc2c(C)nc3cc(-c4ccc(Cl)cc4)nn3c2C)c1,0.47
CCOC(=O)COc1ccc(CC)cc1C(=O)c1ccn2nc(-c3ccc(Cl)cc3)cc2n1,0.04
CCOCC(=O)N1CCc2ccc(S(=O)(=O)N3CCCC3COC)cc2C1 (configuration not stated),-0.32
COc1ccc(CCNc2nc3c(-c4cccc(F)c4)nnn3c3ccccc23)cc1OC,-1.8
COc1cccc(NC(=O)N(Cc2cn(C)c3ccccc23)C2CCCCCC2)c1,1.2
CCOc1ccc(S(=O)(=O)NCCc2c(C)[nH]c3c(Cl)cccc23)cc1C,-0.51
COc1ccc(-n2ccnc2-c2nccn2C2c3ccccc3CC2O)cc1 (configuration not stated),0.6
CCc1nc2cc(NC(=O)NCc3csc(N(C)C)n3)ccc2n1CC,-0.33
CC1=C(C(=O)Nc2ccc(C)cc2C)C(c2ccccc2)n2ncc(C(=O)Nc3ccccc3)c2N1 (configuration not stated),0.61
CCCCN(CCCC)CC(O)Cn1cc(/C=C/C(=O)c2ccccc2)c2ccccc21 (configuration not stated),-5
CCS(=O)(=O)c1nc2ccccc2n1CC(=O)Nc1ccccc1C(=O)OC,-2.1
Cc1ccc2[nH]cc(C(c3ccccc3)c3ccc(Cl)s3)c2c1 (configuration not stated),-0.14
COc1ccc(C(=O)n2nc(N)c3cc4ccc(C)cc4nc32)cc1OC,-0.2
CCCc1nnc(NC(=O)c2nc(S(=O)(=O)Cc3ccc(C)cc3)ncc2Cl)s1,-1.1
Cc1nn(C(C)C(=O)NC2CCC(C)CC2)c(=O)c2cc3sccc3n12 (configuration not stated),-0.29
Cc1ccc(NC(=O)/C(C#N)=C/c2ccccc2Cl)cc1C,0.18
CC(=O)Nc1cccc(NC(=O)CCN2CC3C4CCC(C4)C3C2)c1 (configuration not stated),-0.13
CCNC(=O)c1cccc(NC(=O)N2CCCC(Cn3ccnc3)C2)c1C (configuration not stated),-0.35
CCN(CC)S(=O)(=O)c1ccc(OC)c(NC(=O)c2sc3ccccc3c2Cl)c1,-0.45
Cc1cccc(NC(=O)COc2ccc(-c3nn(C)c(=O)c4ccccc34)cc2)c1,-2.6
Cc1cc(C)c(S(=O)(=O)NCCc2cc3ccc(C)c(C)c3[nH]c2=O)c(C)c1,0.19
Cc1ccccc1NC(=O)Cn1c(=O)n(Cc2ccc3c(c2)OCO3)c(=O)c2ccc(C(=O)NC3CCCCC3)cc21,-0.05
O=c1c(-c2cc(-c3ccccc3)nc3c2COc2ccc(Cl)cc2-3)coc2ccccc12,0.25
CCn1c(=O)c2cc(C(=O)NC3CCC(C)CC3)sc2c2ccccc21 (configuration not stated),-1.7
CC(C)Nc1ncc(CN2CC3CCC(C2)N(Cc2cscn2)C3=O)cn1 (configuration not stated),-1.3
O=C(Cc1cccs1)Nc1ccc(NC(=O)CN2CCCCC2)cc1,0.38
CCOC(=O)N1CCN(C(=O)c2ccc3c(c2)N(Cc2ccccc2F)C(=O)c2ccccc2S3=O)CC1 (configuration not stated),-1.2
COCC1C(NS(=O)(=O)c2ccc(F)cc2C)C2CCOC21 (configuration not stated),-0.38
CCc1ccc(OCC(=O)Nc2c(C(=O)c3ccc(Br)cc3)oc3ccccc23)cc1,-0.42
COc1ccccc1NC(=O)CSc1oc(-c2ccccc2)nc1S(=O)(=O)c1ccccc1,0.46
CCOc1ccc(Nc2oc(/C=C/c3cccc(OC)c3)nc2C#N)cc1,-1.6
COc1cccc(CN2CCCC(O)(CN3CCCNCC3)C2=O)c1OC (configuration not stated),0.56
Cc1nc(N2CCCCCCC2)ncc1C(C)NC(=O)C(C)(C)N (configuration not stated),-0.82
Cc1nn(Cc2ccccc2Cl)c(C)c1NC(=O)c1cc(C(C)C)on1,-1.7
Cc1cccc(NC(=O)CC2Nc3cccc4cccc(c34)NC2=O)c1 (configuration not stated),-0.91
O=C(CCn1cnnc1)N1CCCC2(CCCN(Cc3ccccc3)C2)C1 (configuration not stated),0.04
Cc1ccc(C2=NC(c3ccccc3)=Nc3ccc(Cl)cc3N2)cc1,-0.14
Cn1nc(C2CCN(CC(=O)O)CC2)n(-c2ccccc2)c1=O,-0.22
Cc1ccc(CNC(=O)c2ccc3nc(N4CCCCC4)sc3c2)cc1,-0.03
CN(C)[C@@H]1C(=O)C(C(N)=O)=C(O)[C@@]2(O)C(=O)C3=C(O)c4c(O)ccc(Cl)c4[C@@](C)(O)[C@H]3C[C@@H]12,-6.2
CCCn1nccc1C(=O)N1CCC(NC(=O)c2ccccc2)C(O)C1 (configuration not stated),-1
CCOC(=O)c1ccc(NC(=O)c2csc3c2CCCCC3)cc1,1.4
CCOC(=O)Cc1ccc(NC(=O)NCCn2ccnc2)cc1,-0.29
CC(C)=CCCC(C)=CCNC(=O)Nc1cccc(S(N)(=O)=O)c1,-3.5
COc1cc(-c2nnn(CC(=O)Nc3ccc(OC(F)(F)F)cc3)n2)cc(OC)c1OC,-0.76
O=C(NCCc1noc(-c2ccccc2)n1)N1CCS(=O)(=O)CC1,-1.8
O=C(NCc1n[nH]c2c1CCCCC2)C1(Nc2ccccc2)CCCC1,-0.52
CCc1noc(NC(=O)CN(C)C2CCS(=O)(=O)C2)c1C (configuration not stated),0.95
O=C(c1cnc2cc(-c3ccccc3)nn2c1)c1cc([N+](=O)[O-])ccc1O,-1.2
CC(C)c1nc(CN(C)S(=O)(=O)CCC2CCS(=O)(=O)C2)cs1 (configuration not stated),-0.04
O=C(Cn1ncc2c3ccccc3n(Cc3ccccc3F)c2c1=O)NCc1ccccc1Cl,-2.2
COc1cccc(-n2c(=O)c3cc(OC)c(OC)cc3n(CC(=O)Nc3ccccc3)c2=O)c1,-0.49
Cc1ccccc1Cn1nnc2c(=O)[nH]c(C3CCN(C(=O)c4ccc(F)cc4)CC3)nc21,0.77
Cc1ccc(C(C)C)c(OCC(=O)Nc2ccc(-c3nc4ncccc4o3)cc2C)c1,-0.45
Fc1ccc(CNc2nc(-c3ccccc3)cc(C(F)(F)F)n2)cc1,1.2
CC(C)n1c(=N)c(C(=O)NC2CCCCC2)cc2c(=O)n3ccccc3nc21,-1.1
Cc1ccc(NC(=O)C2CCN(S(=O)(=O)c3c(C)noc3C)CC2)cc1C,-0.86
O=C(CC1CCS(=O)(=O)C1)NCc1cccnc1Oc1ccccc1F (configuration not stated),0.53
O=S(=O)(Cc1ccc(Cl)cc1F)NCc1nnnn1-c1ccccc1,-0.29
CCN(CC)C(=O)C1=C(C)Nc2nc3ccccc3n2C1c1cccc(Cl)c1 (configuration not stated),0.08
# More results:
SMILES,Bm FixLJ act
COc1ccc(-c2cc(C(=O)Oc3cccc(C)c3C)c3ccccc3n2)cc1,-0.37
O=C(Cc1cccc(O)c1)NC(c1ccccn1)C1CC(O)C1 (configuration not stated),-1.7
C=CCOc1ccc(C2CC(=O)Nc3n[nH]c(C(=O)O)c32)cc1Cl (configuration not stated),-1.2
CC(C)Sc1ncc(Cl)c(C(=O)Nc2ccc(S(=O)(=O)N3CCCCC3)cc2)n1,-1.2
Cc1oc2c(C)c3oc(=O)c(CC(=O)N4CCCCC4)c(C)c3cc2c1C,-2.3
COc1ccc(OC)c(-c2cc(C(=O)NCc3ccc(Cl)cc3)no2)c1,-1.6
Cn1c(=O)c2c(ncn2CC(=O)Nc2cccc(Cl)c2Cl)n(C)c1=O,-0.23
CCCN1CCN(C(=O)c2ccccc2)C2CS(=O)(=O)CC21 (configuration not stated),-0.49
O=C(N1CCCC(O)(CO)CC1)C1(c2ccccc2)CCCCC1 (configuration not stated),0.19
COc1ccc(S(=O)(=O)Nc2cc3c(C(=O)OC(C)C)c(C)oc3c3ccccc23)cc1,0.1
CCc1cccc(NC(=O)c2cccc3c2C(=O)N(C2CCCCC2)C3)c1,-1
Cc1nc(N(CCCCO)Cc2ccccc2)c2nc(C)oc2n1,-2.7
CN(Cc1ccc2nsnc2c1)C(=O)c1ccn(C(F)F)n1,-0.07
Cc1ccc2nc(-c3cccs3)c(Nc3c(C)cccc3C)n2c1,0.7
CCn1cc(C(=O)NCc2ccc(C)cc2)c(=O)c2cc(S(=O)(=O)N3CCc4ccccc4C3)ccc21,-1.4
CC(C)c1noc(C2CCCN2C(=O)NCc2cn3ccsc3n2)n1 (configuration not stated),-0.71
CCc1cccc(C)c1Nc1c(-c2ccc(N(C)C)cc2)nc2cnccn12,0.71
CC(C)CC(NC(=O)c1cccc(-c2ncccc2N)c1)C(N)=O (configuration not stated),-0.1
O=C(c1ccccc1N1CCS(=O)(=O)CC1)N1CCOC(C(F)(F)F)C1 (configuration not stated),-5.1
CCc1ccc(C(=O)COC(=O)C(NC(=O)C2CCC(C)CC2)C(C)C)cc1 (configuration not stated),-0.75
N#C/C(=C/c1ccc(Cl)cc1Cl)c1nc2ccccc2c(=O)[nH]1,1.1
CCOc1ccc(OCC)c(NC(=O)c2nnn(CC(=O)Nc3ccc(C)cc3C)c2N)c1,-0.53
COc1ccccc1OCCCn1c(C2CC(=O)N(c3ccc(F)cc3)C2)nc2ccccc21 (configuration not stated),-1.9
CC(C)C(=O)c1c(C(C)C)nn2ccccc12,-1.7
Cc1ccc(C(C)C)c(OCC(=O)Nc2ccc(S(=O)(=O)Nc3onc(C)c3C)cc2)c1,0.38
Cc1ccccc1-n1c2nc(=O)[nH]c(=O)c-2cc2c(Cl)cccc21,-2.3
Cc1cc(C)c(NC(=O)Cn2c(=O)n(Cc3ccc4c(c3)OCO4)c(=O)c3ccc(C(=O)NC4CCCCC4)cc32)c(C)c1,-0.27
Cc1ccc(C(=O)c2ccc(CC(=O)O)n2C)cc1,-1.8&2.2
CCN(CC)CCOC(=O)c1ccc(NC(=O)CSc2cc(=O)n(CC)c3ccccc23)cc1,0.22
COc1cccc(CN2CCn3nc(CNC(C)=O)cc3C2)c1OC,0.13
CCN(CC)CCOC(=O)C(Cc1cccc2ccccc12)CC1CCCO1 (configuration not stated),-0.01
COc1ncc(C(=O)NCc2nnnn2-c2ccccc2)cn1,-2.2
O=C(Cn1nnnc1-c1ccccc1F)Nc1ccc(F)c(F)c1,-2.1
O=C(CSc1nc(-c2ccccc2)cc(=O)[nH]1)Nc1ccccc1F,0.14
CCN(C(=O)c1cc2c(Cl)nc3ccccc3c2s1)c1cccc(Cl)c1,0.02
Cc1ccc(Cn2cc(/C=C(/C#N)C(=O)Nc3cccc(Cl)c3)c3ccccc32)cc1,-1
COc1ccc(N2CCN(c3oc(-c4ccccc4C)nc3S(=O)(=O)c3ccccc3)CC2)cc1,2.3
NS(=O)(=O)c1ccc(C(=O)NCCc2cn3ccsc3n2)cc1,0.24
